# Assay outcomes deposited in PubChem by several laboratories.
# CBX7 inh – CBX7 chromodomain binding inhibitors, primary screen, biochemical, AlphaScreen; Chromobox protein homolog 7 (Homo sapiens), O95931; AlphaScreen His6-CBX7 / biotin-H3K27me3 peptide binding; stronger effect = lower value; normalised signal (fraction of DMSO) (concentration not given with the values); 66,000 tested, 1.1% active; AID 1224903, 2016; in the data active = normalised signal below about 0.5;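 also: 100 nL library stock added to about 20 µL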
# Target sequence (O95931 whole entry, looked up): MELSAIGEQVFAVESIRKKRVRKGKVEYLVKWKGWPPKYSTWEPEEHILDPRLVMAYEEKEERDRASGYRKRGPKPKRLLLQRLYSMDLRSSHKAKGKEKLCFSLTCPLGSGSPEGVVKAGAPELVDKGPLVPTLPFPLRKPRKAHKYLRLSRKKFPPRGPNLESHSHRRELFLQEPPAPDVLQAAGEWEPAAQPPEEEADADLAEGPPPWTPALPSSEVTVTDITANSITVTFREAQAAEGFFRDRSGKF
# CBX7 inh z-score – recorded beside CBX7 inh, whose call it bears; z-score; measured here: z-score of CBX7 signal; some inactives read as strong as hits; reference of the scale not given here;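 same signal on another scale; lower means less binding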
# The depositor's hits bear a star; & = joins results of further samples. Only part of the results is shown, so the mix of outcomes need not match the whole.
structure | CBX7 inh | CBX7 inh z-score
CCCCCCC(=O)Nc1ncc(Cc2ccc(F)cc2)s1 | 0.97 | -0.34
CCOc1cccc(-c2cc(C(=O)O)c3cc(Br)ccc3n2)c1 | 1 | -0.015
COc1ccc(-n2nc(C(=O)NCC(=O)Nc3ccc(F)c(Cl)c3)c3ccccc3c2=O)cc1 | 1 | 0.27
COC(=O)c1c[nH]n2c(NC3CCCC3)c(-c3ccc(F)cc3)nc12 | 0.28* | -0.81*
CCOC(=O)c1c(C)n(CCO)c2ccc(OC(C)=O)cc12 | 1 | 0.16
Cc1ccc(N2CCN(C(=O)CCc3nc4ccccc4[nH]3)CC2)c(C)c1 | 1 | 0.91
CCOc1cccc(C(=O)Nc2c(C(=O)c3ccc(OC)cc3)oc3ccccc23)c1 | 1.3 | 1.1
COc1ccc(Cl)cc1NC(=O)C1CCCN(S(=O)(=O)c2cnc[nH]2)C1 (configuration not stated) | 1 | 1.4
COc1cccc(N2CCN(S(=O)(=O)c3cccc4cccnc34)CC2)c1 | 0.91 | -2
CCN(CC)S(=O)(=O)c1cccc(C(=O)Nc2ccccc2C(=O)Nc2ccccc2)c1 | 0.9 | -0.65
CC1(C)CC(=O)c2c(oc3ccc(NS(=O)(=O)c4cc(Cl)ccc4Cl)cc23)C1 | 1.1 | 1.4
COc1ccc(OC)c(C2CC(=O)c3c([nH]c(C(=O)OCc4ccccc4)c3C)C2)c1 (configuration not stated) | 0.95 | -0.67
COc1cccc(-c2nn(C)c3sc(C(=O)Nc4cccnc4)cc23)c1 | 0.94 | -1.5
C=CCN(C(=O)Cn1nc(-c2ccc(OC)cc2)ccc1=O)c1ccccc1 | 1.1 | 1.1
Cc1ccc2c(c1)c1c(n2CC(O)Cn2c(C)nc3ccccc32)CCCC1 (configuration not stated) | 0.89 | -3.6
Cc1cc(C)cc(OCc2nnc(NC(=O)COc3ccc(F)cc3)s2)c1 | 1.1 | 0.4
Clc1cccc(Cl)c1-c1nnc2ccc(N3CCOCC3)nn12 | 0.95 | -0.85
Cc1ccc(C(=O)Nc2ccc3oc(-c4ccccc4F)nc3c2)cc1C | 1 | 1.7
O=C(Nc1ccc(Cl)cc1)c1c[nH]n2c(=O)cc(C3CCNCC3)nc12 | 0.97 | -0.88
Cc1cccc(C2(c3cccc(C)c3)CC2C(=O)Nc2ccc(Cl)c(Cl)c2)c1 (configuration not stated) | 0.97 | -0.82
Cc1ccc(CNC(=O)c2ccc3c(c2)N(Cc2ccc(F)cc2Cl)C(=O)CS3)cc1 | 1 | 1.6
COc1ccc(Br)cc1C(=O)Nc1cccc(-c2nc3ncccc3o2)c1C | 1.1 | 1.8
CCOC(=O)c1ccc(N2CCCCCC2)c(NC(=O)Nc2ccc(CC)cc2)c1 | 0.8 | -3.5
CCCCN1C(=O)CN(CCc2ccccc2)C(=O)C1c1ccc(OC)cc1 (configuration not stated) | 1.2 | 0.64
COc1cc2c(cc1OC)C(C(=O)NCc1ccc3c(c1)OCO3)C1c3ccccc3CCN1C2=O (configuration not stated) | 1 | 0.33
COc1cc2c(C(=O)Nc3ccc(C(C)C)cc3)cn(C)c(=O)c2cc1OC | 1 | 0.0038
CC(Oc1ccccc1Br)c1nc(-c2nonc2N)no1 (configuration not stated) | 1.1 | 2.3
CCOC(=O)c1cnc2ccc(OCC)cc2c1NCCCN1CCOCC1 | 1.2 | 2.3
CCOc1ccccc1-n1cnc2cc(C(=O)NC3CCCCCC3)ccc21 | 0.95 | -0.65
CCN1CCN(c2oc(COc3ccccc3F)nc2C#N)CC1 | 0.97 | -0.22

# Five entries already listed, arranged by heavy-atom count, descending.
structure | CBX7 inh | CBX7 inh z-score
COc1ccc(-n2nc(C(=O)NCC(=O)Nc3ccc(F)c(Cl)c3)c3ccccc3c2=O)cc1 | 1 | 0.27
CCOC(=O)c1ccc(N2CCCCCC2)c(NC(=O)Nc2ccc(CC)cc2)c1 | 0.8 | -3.5
COc1ccc(Cl)cc1NC(=O)C1CCCN(S(=O)(=O)c2cnc[nH]2)C1 (configuration not stated) | 1 | 1.4
CCN1CCN(c2oc(COc3ccccc3F)nc2C#N)CC1 | 0.97 | -0.22
CCCCCCC(=O)Nc1ncc(Cc2ccc(F)cc2)s1 | 0.97 | -0.34

# Remaining list, next part.
structure | CBX7 inh | CBX7 inh z-score
Cc1cc(Cl)ccc1OC(C)C(=O)NCCCn1ccnc1 (configuration not stated) | 0.98 | -0.56
Cc1ccc(C(C)C)c(OCC(=O)Nc2cc(-c3nc4cc(Cl)ccc4o3)ccc2C)c1 | 1.1 | 0.41
O=C(Nc1ccc(Cl)c(Cl)c1)N(CCCN1CCOCC1)Cc1cccs1 | 0.95 | -0.046
CC(=O)N1CCc2cc(S(=O)(=O)NCCC(=O)N3CCN(c4cccc(Cl)c4)CC3)ccc21 | 0.94 | -1.1
CCC(=O)N1CCc2cc(S(=O)(=O)N3CCN(c4cc(C)ccc4C)CC3)ccc21 | 1.4 | 1.8
COc1ccc(-c2noc(COc3ccc(Cl)cc3Cl)n2)cc1 | 1.2 | 0.19
O=C(NCC1CCCO1)c1cc2n(n1)C(C(F)(F)F)CC(c1ccco1)N2 (configuration not stated) | 1 | -0.0095
Cc1cc(NC(=O)CSc2nnc(Cc3cc(=O)[nH]c(=O)[nH]3)n2-c2ccc(Cl)cc2)no1 | 1.1 | 1.3
COc1ccccc1NC(=O)c1cn(C)c(=O)c2cc(OC)c(OC)cc12 | 1.2 | 1.7
COc1ccccc1NS(=O)(=O)c1ccc2c(c1)CCN2C(=O)C1CCC1 | 0.96 | -1.1
Cc1ccc(NC(=O)C2CC(c3ccc(F)cc3)=NO2)cc1 (configuration not stated) | 1 | 0.95
COc1ccc(-n2c3c(cc(C(=O)Nc4cccc(C)c4)c2=O)C(=O)CC(C)(C)C3)cc1 | 0.97 | -0.64
COCCNS(=O)(=O)c1ccc2c(c1)CCN2C(C)=O | 1 | 0.063
CCOc1ccc(OCC)c(NC(=O)C2=CCN(S(=O)(=O)c3ccc(OC)cc3)CC2)c1 | 0.9 | -4.6
CCOc1ccccc1C1CC(=O)C2=C(C1)Nc1ccccc1N(C(C)=O)C2c1ccc(OC)cc1 (configuration not stated) | 1 | 0.71
O=C(Nc1ccc2nc(-c3ccccn3)[nH]c2c1)C1CCCCC1 | 0.77 | -10
O=C(NCCCN1CCOCC1)c1ccc2nc(N3CCOCC3)sc2c1 | 1 | 0.75
COc1cccc(CNCc2ccc3c(c2)OCO3)c1 | 1 | 0.35
Cc1ccccc1CN1CCN(CC(=O)NCc2ccccn2)C1=O | 0.99 | -0.61
Cc1cccc(Cc2cnc(NC(=O)COc3ccccc3C)s2)c1 | 1 | 0.07
COc1cccc(NC(=O)CSc2nnc(Cc3cc(=O)[nH]c(=O)[nH]3)n2-c2ccc(Cl)cc2)c1 | 0.88 | -1.8
Nc1nonc1-c1noc(COc2ccc(Cl)cc2Cl)n1 | 1 | 0.86
CCNC(=O)C(=O)Nc1ccc(Cl)c(C(F)(F)F)c1 | 1 | 0.9
Cc1nn(-c2ccccc2)c(Cl)c1C(=O)NCc1ccccc1 | 0.97 | -0.71
Cc1noc(C)c1S(=O)(=O)N1CCCC(C(=O)NC(C)c2ccccc2)C1 (configuration not stated) | 0.78 | -1.8
COc1ccc(C(=O)Nc2cccc(-c3cnc4ccccc4n3)c2)cc1 | 0.92 | -1
COC(=O)C(C)Sc1nnc(Cc2cc(=O)[nH]c(=O)[nH]2)n1-c1ccc(F)cc1 (configuration not stated) | 0.97 | -0.069
COc1ccc(OCc2nc(C#N)c(NCCc3ccccc3)o2)cc1 | 0.95 | -2.1
O=C(NCc1ccccc1Cl)C1C2C=CC3(CN(Cc4ccccc4Cl)C(=O)C13)O2 (configuration not stated) | 1.1 | 2.3
Cc1ccc(Cn2c(=O)c3cccnc3n(CC(=O)Nc3ccccc3C(F)(F)F)c2=O)cc1 | 1 | 0.41
Cc1nc2sc(C(c3cccs3)N3CCN(c4ccc(F)cc4)CC3)c(O)n2n1 (configuration not stated) | 0.97 | -1.6
Cc1[nH]c2ccccc2c(=O)c1CN1CCCCCC1 | 1 | 0.85
Fc1cccc(CSc2nc3ccncc3n2Cc2c(F)cccc2Cl)c1 | 0.98 | -0.42
Cc1ccc(-c2nc(-c3ccc(Br)cc3)no2)cc1 | 1.1 | 5.1
CCC(C)C(NC(=O)C1CCC(C)CC1)C(=O)NCCCN1CCCCC1CC (configuration not stated) | 1 | 0.91
CCOc1ccc(NC(=O)[C@H](C(C)CC)N2Cc3ccccc3C2=O)cc1 (some centres not stated) | 0.94 | -1
O=C(CSc1nnc(Cc2cc(=O)[nH]c(=O)[nH]2)n1-c1ccc(F)cc1)NCc1ccc(F)cc1 | 1 | 1.3
Cc1cc(C)c2oc(-c3cccc(NC(=O)CC(C)C)c3)nc2c1 | 1 | 1.4
COc1ccc2c(c1)c(=O)c(S(=O)(=O)c1ccc(C)cc1)cn2CC(=O)Nc1ccc(C)cc1 | 0.77 | -3.4
COc1ccc(-c2nc3cnccn3c2Nc2ccc(C(C)C)cc2)cc1 | 1 | 0.63
COc1ccccc1-n1c(C)nc2cc(C(=O)NCc3ccc4c(c3)OCO4)ccc21 | 0.92 | -2
O=C(Cn1ccc2ccccc2c1=O)Nc1ccc2c(c1)OCO2 | 1 | 0.35
COc1ccc(CCNC(=O)c2cnc3sccn3c2=O)cc1 | 0.93 | -0.82
COc1cc2c(cc1OC)C(C(=O)Nc1ccccn1)C1c3ccccc3CCN1C2=O (configuration not stated) | 1 | 1.5
CCCCSCCCNC(=O)c1c[nH]c2ccc(S(=O)(=O)Nc3ccccc3F)cc2c1=O | 0.67 | -6.3
CC(=O)N1CCc2cc(S(=O)(=O)N3CC=C(c4ccccc4)CC3)ccc21 | 1.3 | 2.9
COc1ccc(-c2nc(-c3ccccc3)c(-c3cccs3)[nH]2)c(OC)c1 | 0.54 | -2.9
CNC(=O)c1cc(Nc2nnc(-c3ccc(OC)cc3)c3ccccc23)ccc1OC | 0.89 | -1.2
CCc1ccc(C2CC(c3ccccc3C)n3ncnc3N2)cc1 (configuration not stated) | 0.51 | -6.9
CCN1CCN(C(c2cccs2)C(C)NC(=O)c2cccc(OC)c2)CC1 (configuration not stated) | 1.3 | 3.2
O=C(O)CCC(=O)Nc1ccc(-c2nnc(-c3ccco3)o2)cc1 | 0.85 | -0.42
COc1cc(OC)c(NC2c3ccccc3C(=O)N2c2ccccc2C)cc1Cl (configuration not stated) | 0.8 | -6.9
CCCCN(CC)S(=O)(=O)c1ccc(C(=O)Nc2nnc(CC)o2)cc1 | 0.079* | -10*
C=CCC(C#Cc1ccccc1)N1CCOCC1 (configuration not stated) | 0.69 | -1.2
Cc1nccn1CC(O)Cn1c2ccc(Cl)cc2c2cc(Cl)ccc21 (configuration not stated) | 0.86 | -1.7
CCOC(=O)C1CCCN(c2c(Nc3ccc(OCC)cc3)c(=O)c2=O)C1 (configuration not stated) | 1 | 0.31
NS(=O)(=O)c1ccc(CCNC(=O)C2(S(=O)(=O)c3ccc(Cl)cc3)CC2)cc1 | 1.1 | 0.91
COc1ccc(CN2CC(C(=O)NCc3ccccc3Cl)CC2=O)cc1 (configuration not stated) | 1.1 | 0.12
COC(=O)c1ccc(Nc2cc(C)nc3ccc(OC)cc23)cc1 | 1.1 | 0.42
Cc1nn(-c2ccccc2Cl)c2c1C(=O)CC(C)(C)C2 | 0.84 | -3

# The listing continues:
structure | CBX7 inh | CBX7 inh z-score
O=C(NCCN1CCN(c2ccccc2F)CC1)C1CCCN(S(=O)(=O)c2cnc[nH]2)C1 (configuration not stated) | 0.99 | -0.21
COc1ccc(NC(=O)c2cc(C)no2)cc1OC | 1.2 | 3
CCC1CCCCN1CCCNC(=O)C(NC(=O)C1CCC(C(C)(C)C)CC1)C(C)C (configuration not stated) | 1 | 1.2
Cc1ccc2nc(N3CCN(c4ccccc4Cl)CC3)nc(-c3ccccc3)c2c1 | 2.1&2.7 | 12&38
Cc1ccc(CCNC(=O)c2cc3c(s2)-c2c(C)cccc2OC3)cc1 | 1.1 | 2.1
CC(NS(=O)(=O)c1ccc(Br)cc1)C(c1cccs1)N1CCN(C)CC1 (configuration not stated) | 1.2 | 4.2
CCN1CCN(c2oc(-c3ccc(OC)cc3)nc2C#N)CC1 | 1.1 | 0.78
Cc1ccccc1OC1C(=O)N(c2cccc(Cl)c2)C1c1ccc2c(c1)OCO2 (configuration not stated) | 1.1 | 2.1
Cc1ccc2nc(Nc3nccc(C)n3)nc(C)c2c1 | 0.99 | -0.37
COc1ccc(-c2ccc(=O)n(CC(=O)Nc3ccccc3OC)n2)cc1 | 1 | -0.11
Cc1c(C(=O)NC(C)CCc2ccccc2)oc2c1C(=O)CCC2 (configuration not stated) | 0.96 | -1
Cc1ccc(Nc2c(-c3ccc(Cl)cc3)nc3cnccn23)cc1 | 1.1 | 0.9
Cc1cccc(Nc2nc(-c3ccccc3)c3cc(Cl)ccc3n2)c1 | 1.8 | 13
O=C(Cn1ncc2c1-c1ccccc1OC2)N1CCN(c2ccccn2)CC1 | 0.84 | -2.1
COc1ccc(C2CC(=O)Nc3cc(OC)c(OC)cc32)c(OC)c1 (configuration not stated) | 1.4 | 1.8
CCOC(=O)N1CCC(NC(=O)c2cc3c(-c4cccc(OC)c4)nn(C)c3s2)CC1 | 1.1 | 2.1
COc1ccc(OC)c(-c2nnc(SCC(=O)N3CCCC3)o2)c1 | 1 | 1.6
CCOC(=O)c1c(NC(=O)CCl)sc(C(=O)N2CCCCC2)c1C | 0.85 | -1.7

# Molecules listed so far that contain a cyano group (3):
structure | CBX7 inh | CBX7 inh z-score
CCN1CCN(c2oc(COc3ccccc3F)nc2C#N)CC1 | 0.97 | -0.22
COc1ccc(OCc2nc(C#N)c(NCCc3ccccc3)o2)cc1 | 0.95 | -2.1
CCN1CCN(c2oc(-c3ccc(OC)cc3)nc2C#N)CC1 | 1.1 | 0.78
